# Source: PubChem BioAssay (Emory University Molecular Libraries Screening Center)
# Measles inh – inhibitors of measles virus growth in infected cells; infected Vero cells, GFP fluorescence, 64 h; active compounds read low; z-score (no concentration beside the values); hit rate 0.1% among 33,000; AID 745;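 active = z-score under -3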;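 note: score is relative to mean and SD of the compound wells of a plate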
# Starred values were filed as active, the others as inactive. Only part of the results is shown, so the mix of outcomes need not match the whole.
SMILES,Measles inh
CCOC(=O)c1c(NC(=O)c2cc3nc(-c4ccco4)cc(C(F)(F)Cl)n3n2)sc2c1CCCCC2,0.16
COCCNC(=O)CN1N=C(c2ccc(C)cc2)CCC1=O,-0.78
Cn1ncc(Cl)c1C(=O)Nc1ccc2nc(NC(=O)C3CCCCC3)sc2c1,-1.6
COc1ccc(O)c(-c2nc3ccccc3nc2-c2ccccc2)c1,-0.16
Cc1ccc(-c2cc(C(=O)NCCN3CCCCC3C)c3ccccc3n2)cc1C (configuration not stated),-0.75
COc1cccc(-c2cc(C(F)(F)F)nc(-n3nc(OC)c([N+](=O)[O-])c3C)n2)c1,0.13
CCOC(=O)c1ccc(CSc2ncn[nH]2)o1,0.38
CSc1ccc(S(=O)(=O)N(CC(=O)N2CCCC2)c2ccc(C)cc2)cc1,-0.17
O=C(O)c1c[nH]c2ccc(S(=O)(=O)NCc3ccc4c(c3)OCO4)cc2c1=O,-1.4
Fc1ccc(C2C=C(c3ccc(Cl)cc3)Nc3ncnn32)cc1 (configuration not stated),-0.14
COc1cc(C2NC(C(=O)O)CS2)cc(Cl)c1O (configuration not stated),-0.03
CCSc1nc2nc3c(cc2c(=O)n1-c1ccccc1C)COC(C)(C)C3,-0.55
O=C(CSc1nc2c(cnn2-c2ccc(Cl)cc2)c(=O)[nH]1)Nc1ccccc1,0.18
CCOC(=O)c1cccc(NC(=O)c2ccc(OC)cc2)c1,-0.67
O=C(OCCCN=C1NS(=O)(=O)c2ccccc21)C(c1ccccc1)N1CCCCCC1 (configuration not stated),-0.04
C=CCSc1nc(C2CC2)cc(-c2ccccc2)c1C#N,0.56
O=C(CS(=O)(=O)c1cn(Cc2cccc(F)c2)c2ccccc12)Nc1ccc2c(c1)OCCO2,-0.33
Cc1c(NS(=O)(=O)c2c(C(C)C)cc(C(C)C)cc2C(C)C)c(=O)n(-c2ccccc2)n1C,-0.27
CCCCn1c(CCNC(=O)c2ccccc2OC)nc2ccccc21,-0.68
CC1=C(C(=O)Nc2ccccn2)C(c2ccc3c(c2)OCO3)NC(=S)N1 (configuration not stated),0.08
O=C(CNc1ccccc1-c1nc2ccccc2[nH]c1=O)NCc1ccccc1Cl,1.9
Cc1ccccc1NS(=O)(=O)c1cccc2cccnc12,0.68
COc1ccc(C(=O)Nc2ccc(C(=O)OCC(C)C)cc2)cc1,1.4
Cc1ccc(N2C(=O)C3CCCCC3C2=O)cc1C (configuration not stated),0.09
COc1cc2c(cc1OC)C1C(C(=O)NCCC3=CCCCC3)c3ccccc3C(=O)N1CC2 (configuration not stated),0.14
COc1ccc(CNC(=O)c2cncc(Br)c2)cc1,-0.33
O=C(NCc1ccc(F)cc1)c1ccc(Cn2c(=O)[nH]c3ccccc3c2=O)cc1,-1.7
CN1CCN(CCCNC(=O)c2ccc3c(c2)NC(=O)CS3)CC1,0.1
O=C(Cn1cnc2sc3c(c2c1=O)CCCC3)NCCCC(=O)Nc1ccccc1F,-0.04
COc1ccc(C(=O)Nc2c3c(nn2-c2cccc(Cl)c2)CS(=O)(=O)C3)cc1OC,-1.4
CCC(C)NC(=O)C1Cc2ccccc2CN1S(C)(=O)=O (configuration not stated),-0.27
Nc1cccc(S(=O)(=O)c2ccc(N)c(N)c2)c1,-0.46
CCCN1CCN(c2cc(Nc3ccc(F)cc3)c3c4c(onc24)-c2ccccc2C3=O)CC1,-0.05
Cc1nc2c(C(=O)NCc3ccccc3Cl)c[nH]n2c(=O)c1Cl,0.1
O=C(Nc1ccc(Cl)cc1)c1ccc(Oc2ccccc2)cc1,-0.16
COc1cc(C2Nc3cccc4cccc(c34)N2)cc(I)c1O,-0.72
O=C(O)c1ccc(Oc2cc(Oc3ccc(C(=O)O)cc3)cc([N+](=O)[O-])c2)cc1,-0.63
CCOc1ccc(CCNC(=O)C2c3ccccc3C(=O)N3CCc4ccccc4C23)cc1OCC (configuration not stated),-0.31
COc1ccc(OC)c(C2CC(=O)C(C(C)C)C(c3cc(OC)ccc3OC)N2)c1 (configuration not stated),-0.02
CCOC(=O)c1cccnc1SCC(=O)NCc1ccccc1,-0.37
COc1cccc(C(=O)Nc2nc3ccc(S(C)(=O)=O)cc3s2)c1,0.1
O=C(COC(=O)c1ccccc1Br)c1ccc([N+](=O)[O-])cc1,0.8
CCOc1ccc2[nH]c(C)c(CN3CCCC3)c(=O)c2c1,-0.11
Cc1cccc(NC(=O)c2cc(S(=O)(=O)NC3CCCCCC3)ccc2F)c1C,-0.16
Oc1cc(N=CC=Cc2cccc(Br)c2)ccc1-c1nc2ccccc2o1,-1.6
CCOc1ccc(C(=O)Nc2cccc(-c3nc4ccccc4s3)c2)cc1[N+](=O)[O-],-0.41
CCOc1cccc(C2CC(c3ccc(C)cc3)=NC(c3ccccc3OC)N2)c1O (configuration not stated),-0.82
O=C(CC(=O)c1ccccc1)C(=O)Nc1ccc(Cl)cc1,-0.76
CCCCCn1c(=O)c(Cc2ccccc2)c(O)c2ccccc21,0.13
O=C(Nc1ccc2oc(-c3ccncc3)nc2c1)c1ccc(-c2ccc(Cl)cc2)o1,-0.07

# (continued)
SMILES,Measles inh
O=C(Nc1ccc([N+](=O)[O-])cc1)c1cc2cc([N+](=O)[O-])ccc2o1,-1.2
Cc1ccc(Cn2ccc(NC(=O)c3cc(-c4ccc(Br)cc4)on3)n2)cc1,0.7
COCc1cc(C)nc(SCC(=O)Nc2ccc(C(C)=O)cc2)c1C#N,-0.02
CCC(=O)N1N=C(C(F)(F)F)CC1(O)c1ccc(F)cc1 (configuration not stated),-0.62
CC(=O)NCCNC(=O)CCn1c(=S)[nH]c2cc3c(cc2c1=O)OCO3,2
CC(=O)N1CCc2cc(S(=O)(=O)NC(C(=O)Nc3ccc(Br)cc3)C(C)C)ccc21 (configuration not stated),-1.4
O=C1c2ccc(Br)cc2C(=O)N1c1cccc(C(F)(F)F)c1,-0.89
O=C(O)C1CC(=O)N(C2CCCC2)C1 (configuration not stated),-0.04
CSc1nc2c(c(=O)[nH]c(=O)n2C)n1CCCc1ccccc1,-1.2
CCOc1cc(C2C(C(=O)OCc3ccc(OC)cc3)=C(C)NC3=C2C(=O)CCC3)cc(Cl)c1O (configuration not stated),-0.53

# Some of the entries above in another layout:
CCC(=O)N1N=C(C(F)(F)F)CC1(O)c1ccc(F)cc1 (configuration not stated)
- Measles inh = -0.62
CC(=O)NCCNC(=O)CCn1c(=S)[nH]c2cc3c(cc2c1=O)OCO3
- Measles inh = 2
CC(=O)N1CCc2cc(S(=O)(=O)NC(C(=O)Nc3ccc(Br)cc3)C(C)C)ccc21 (configuration not stated)
- Measles inh = -1.4
O=C1c2ccc(Br)cc2C(=O)N1c1cccc(C(F)(F)F)c1
- Measles inh = -0.89

# More structures follow.
SMILES,Measles inh
COC(=O)c1sc(-c2ccccc2)cc1NC(=O)c1ccc(S(=O)(=O)N2CCOCC2)cc1,0.31
CCOC(=O)c1nnn(-c2ccc(C(F)(F)F)cc2[N+](=O)[O-])c1C,-0.94
O=C(CN1C(=O)c2ccccc2C1=O)Nc1ccccc1C(=O)NC1CCCCC1,0.58
CCCn1c2ccc(Br)cc2c2nc3ccccc3nc21,0.17
Cc1nc(/N=C(\N)Nc2cccc(Cl)c2C)[nH]c(=O)c1C,-0.25
CCOC(=O)C(C)(C)N(Cc1cccc(C)c1)S(=O)(=O)c1ccc([N+](=O)[O-])cc1,0.86
COc1ccc(NC(=O)c2cc3n(n2)C(C(F)(F)F)CC(c2ccc(C)cc2)N3)cc1Cl (configuration not stated),0.97
O=c1oc2ccc3ccccc3c2cc1-c1nc(-c2ccccc2)cs1,0.88
COc1ccc(-c2coc3c(C)c4oc(=O)c5c(c4cc23)CCC5)cc1,-1.8
O=C(C1CCCN(S(=O)(=O)c2cccs2)C1)N1CCN(C(c2ccccc2)c2ccc(Cl)cc2)CC1 (configuration not stated),-0.69
O=C(O)c1cccc([N+](=O)[O-])c1C(=O)Nc1ccc([N+](=O)[O-])cc1,-0.15
CCCOc1cccc(C(=O)Nc2cccc(-c3nc4cc(C)ccc4o3)c2C)c1,-0.54
CCC1(CC)OC(C2CCCCC2)Nc2ccccc21 (configuration not stated),1.7
CC(C)(C)NCC(=O)N1CC(=O)Nc2ccccc21,0.65
Cc1ccc(S(=O)(=O)NCCC(=O)NCc2ccccc2)cc1,-2
CSc1ccccc1NC(=O)c1cc2n(n1)C(C(F)(F)F)CC(c1ccc(Cl)cc1)N2 (configuration not stated),-0.63
Cc1ccccc1OCC(=O)Nc1ccc(OC(C)C)cc1,0.04
CC(=O)N1CCN(S(=O)(=O)c2ccc(C)cc2)C1c1ccccc1 (configuration not stated),-0.46
CCCCOc1ccc(-c2nnc3n2N=C(c2cccc(C(F)(F)F)c2)CS3)cc1,-0.69
O=C(NCc1ccc2c(c1)OCO2)C1CCN(S(=O)(=O)N2CCOCC2)CC1,-0.57
COc1ccc(CN2CCCN(S(=O)(=O)c3ccc(F)cc3)CC2)cc1,0.65
CCOc1ccc(NS(=O)(=O)c2ccc(NC(=O)c3cccs3)cc2)cc1,-0.02
COc1cc(-c2cc(C(F)(F)F)n3ncc(C(=O)N4CCN(Cc5ccccc5)CC4)c3n2)cc(OC)c1OC,0.39
O=C(Nc1cccc(C(F)(F)F)c1)c1cc2nc(-c3cccs3)cc(C(F)(F)F)n2n1,0.88
Cc1ccc(S(=O)(=O)Nc2cc(C(=O)N(C)CCC#N)ccc2N2CCCCC2)cc1,-1.3
CC(=O)c1cccc(NC(=O)C2CCN(S(=O)(=O)c3ccccc3)CC2)c1,1.1
C=CCN1C(=S)NC2c3cc(Cl)ccc3OC1(C)C2C (configuration not stated),-1.1
O=S(=O)(NCCC1=CCCCC1)c1cccc2nonc12,0.13
CCCCOc1ccc(C2C(=O)N(C3CCCCC3)CC(=O)N2CCc2ccc(Cl)cc2)cc1 (configuration not stated),0.34
C=CCn1c(SCc2ccc(C#N)cc2Cl)nnc1-c1cccc(OC)c1,-1.1
CN(CCc1ccccn1)C(=O)c1cc2c(=O)[nH]c3ccccc3c2s1,-0.74
COc1cccc(OC)c1C(=O)Nc1ccccc1-c1nc2ccccc2[nH]1,-0.12
CCCCCCN1N=C(C)C(C(=O)c2ccc(Br)cc2)C1=O (configuration not stated),-1.2
Cc1ccc(-n2nc3c(c2NC(=O)c2ccccc2F)CS(=O)(=O)C3)c(C)c1,-0.44
CCOC(=O)C1=C(C)Nc2nnnn2C1c1ccccc1OCC (configuration not stated),-0.15
O=C(c1ccc(F)cc1)N1CCN=C1SCc1ccc(Br)cc1,0.55
Cc1ccc(C)n1-c1sc2c(c1C#N)CCCC2,1.9
CCOc1ccccc1NC(=O)c1cc(CC(C)C)oc1C,-2
CC(=O)c1c(C)[nH]c(C(=O)N2CC(C)CC(C)C2)c1C (configuration not stated),-1
O=C(CCn1c(=S)[nH]c2cc3c(cc2c1=O)OCO3)N1CCN(c2cccc(C(F)(F)F)c2)CC1,-0.9

# In the list so far, these have an aryl thioether with sulfur outside any ring:
SMILES,Measles inh
CCOC(=O)c1ccc(CSc2ncn[nH]2)o1,0.38
CSc1ccc(S(=O)(=O)N(CC(=O)N2CCCC2)c2ccc(C)cc2)cc1,-0.17
CCSc1nc2nc3c(cc2c(=O)n1-c1ccccc1C)COC(C)(C)C3,-0.55
O=C(CSc1nc2c(cnn2-c2ccc(Cl)cc2)c(=O)[nH]1)Nc1ccccc1,0.18
C=CCSc1nc(C2CC2)cc(-c2ccccc2)c1C#N,0.56
CCOC(=O)c1cccnc1SCC(=O)NCc1ccccc1,-0.37
COCc1cc(C)nc(SCC(=O)Nc2ccc(C(C)=O)cc2)c1C#N,-0.02
CSc1nc2c(c(=O)[nH]c(=O)n2C)n1CCCc1ccccc1,-1.2
CSc1ccccc1NC(=O)c1cc2n(n1)C(C(F)(F)F)CC(c1ccc(Cl)cc1)N2 (configuration not stated),-0.63
C=CCn1c(SCc2ccc(C#N)cc2Cl)nnc1-c1cccc(OC)c1,-1.1

# The list goes on:
SMILES,Measles inh
C=CCN1C(=O)c2ccccc2Sc2ccc(C(=O)NC)cc21,-0.18
Cc1ccc(-c2nn(-c3ccccc3)cc2C2CC(c3cccs3)=NN2C(=O)CCC(=O)O)cc1 (configuration not stated),0.75
COc1ccc(N=c2oc3c(C)ncc(CO)c3cc2C(=O)Nc2ccc(Cl)cc2)cc1OC,-0.13
C#Cc1cccc(N2C(=O)c3ccc(C(=O)O)cc3C2=O)c1,-0.19
CCOc1ccc(C(=O)Nc2ccc(S(=O)(=O)Nc3nccnc3OC)cc2)cc1,-0.33
COc1ccc(C2C(C(=O)NC3CCCC(C)C3C)c3ccccc3C(=O)N2C)cc1 (configuration not stated),-0.49
COc1ccc(NC(=O)c2cccc(N3C(=O)C4CCC(C)CC4C3=O)c2)c(OC)c1 (configuration not stated),1.1
Cc1nc(SCc2nnc(-c3ccc(Cl)cc3)o2)c(C#N)c(C)c1C,2.2
CC1(C)NC(=O)N(CC(O)CN2C(=O)CCC2=O)C1=O (configuration not stated),-0.9
O=S(=O)(c1ccc(Cc2ccc(S(=O)(=O)N3CCOCC3)cc2)cc1)N1CCOCC1,0.93
Cn1cc(C(=O)NCCN2CCCC2)c(=O)c2cc(S(=O)(=O)N3CCOCC3)ccc21,1.4
Cn1c(=O)[nH]c2cc3ccccc3cc21,-0.16
O=C(COc1ccc(Cl)cc1)Nc1c[nH]c(=O)[nH]c1=O,0.33
Cc1cc(C)n(S(=O)(=O)Cc2ccccc2)n1,-0.14
CCc1cccc(NC(=O)Cn2nc(-c3ccc(OC)cc3)ccc2=O)c1,0.02
COc1cccc2sc(=NC(=O)c3ccc(S(=O)(=O)N(C)C)cc3)n(C)c12,0.58
CC(C)Cn1c(C(C)NC(=O)Cc2ccccc2)nc2ccccc21 (configuration not stated),-0.78
O=C(Cc1ccc(-n2c(=O)[nH]c3ccccc3c2=O)cc1)NC1CCCC1,-0.8
O=C(Nc1cccc(O)c1)c1cc(-c2ccc(Br)cc2)on1,1.6
CC12CN3CC(C)(CN(C1)C3C1CCCCC1)C2=O (configuration not stated),-0.35
Cc1ccc(C2C3=C(CCCC3=O)N(c3ccc(F)cc3)C3=C2C(=O)CCC3)cc1,0.54
Cc1cc(S(=O)(=O)N2CCCc3ccccc32)ccc1Cl,-0.7
O=C(CSc1nc2cc3c(cc2c(=O)n1Cc1ccco1)OCO3)NCc1ccccc1,-0.87
Cc1ccc(Cn2c(=O)n(-c3ccc(C)c(F)c3)c(=O)c3sccc32)cc1,-0.73
